# Assay outcomes as filed in PubChem BioAssay.
# rRNA inh HTS – reduced GFP signal of wild-type E. coli, primary screen, bacterial rRNA inhibitor project, GFP/RFP fluorescence, OD600, single point. E. coli WT GFP vs humanized-ribosome RFP mutants, 24 h; active compounds read low; DMSO median 0, no signal -100. GFP signal change (wild-type ribosome), % (no concentration beside the values). 350,000 compounds, 1.6% hits. AID 720706, 2013;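 active means significant combined selectivity score with lowered wild-type GFP, culture density cut under 30%, mutant RFP and density less affected; inactive means any of these conditions unmet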; further: one replicate is shown; some compounds called inactive have numbers as strong as hits
# Vif A3G – inhibitors of Vif binding to APOBEC3G peptide, primary screen, biochemical, TR-FRET, GST-Vif 1-94, biotin-A3G peptide, dose response retest (AID 1117319). Virion infectivity factor (Human immunodeficiency virus type 1 group M subtype B (isolate …. TR-FRET GST-Vif / biotin-A3G peptide binding; higher % means a stronger effect; test concentration not given here; strong numbers were not always called active. one-dose inhibition, %; IC50 in µM for titrated hits. 260,000 compounds, 0.57% hits;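 active means above the screen mean plus three standard deviations and confirmed in dose response; inconclusive means results disagree or hit not tested in dose response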;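 further: Vif residues 1-94 fused to GST binding biotinylated APOBEC3G peptide 110-148; 0% = full assay without inhibitor and 100% = GST in place of GST-Vif; retest series ran down from 100 µM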
# HNF4A DNA FP – change in binding of human HNF4A to DNA, primary screen, biochemical, fluorescence polarization, FITC-DNA. Hepatocyte nuclear factor 4-alpha (Homo sapiens), P41235. 1 h. activity change, % at 10 µM. 360,000 compounds, 0.3% hits; in the data active means activity change above about 30%, passing the limit was not always enough;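 further: controls were the assay level and a saturating level of protein; the project sought stronger binding though the title names inhibitors; some compounds called inactive have numbers as strong as hits; positive values seem to mean higher polarization but the record does not say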
# Target sequence (P41235 whole entry, looked up): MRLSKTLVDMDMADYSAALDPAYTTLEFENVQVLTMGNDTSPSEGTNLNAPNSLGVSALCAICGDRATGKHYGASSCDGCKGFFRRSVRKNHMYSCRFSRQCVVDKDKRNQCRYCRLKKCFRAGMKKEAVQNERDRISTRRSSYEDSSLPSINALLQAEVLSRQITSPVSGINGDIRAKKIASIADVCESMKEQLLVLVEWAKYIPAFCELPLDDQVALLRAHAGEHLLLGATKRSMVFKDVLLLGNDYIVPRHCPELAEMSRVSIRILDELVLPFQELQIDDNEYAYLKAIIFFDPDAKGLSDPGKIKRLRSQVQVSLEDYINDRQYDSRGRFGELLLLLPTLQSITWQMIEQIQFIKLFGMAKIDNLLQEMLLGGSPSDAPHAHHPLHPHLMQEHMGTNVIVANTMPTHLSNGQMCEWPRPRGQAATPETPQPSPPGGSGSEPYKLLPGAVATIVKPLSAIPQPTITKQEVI
# ALR H2O2 inh – inhibitors of human ALR sulfhydryl oxidase, primary screen, biochemical, H2O2 detection, HRP-luminol luminescence, single point; purified ALR, DTT oxidation; inhibition, % (test concentration not listed); 290,000 compounds, 3.8% hits; AID 485317, 2010;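 active means mean and each replicate at 75% or more; inconclusive means only one of the two met; inactive means neither met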;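 further: stock transfer was 7.5 nL into about 7.5 µL; 0% = neutral wells and 100% = wells with inactivated enzyme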
# Target sequence (P55789 whole entry, looked up): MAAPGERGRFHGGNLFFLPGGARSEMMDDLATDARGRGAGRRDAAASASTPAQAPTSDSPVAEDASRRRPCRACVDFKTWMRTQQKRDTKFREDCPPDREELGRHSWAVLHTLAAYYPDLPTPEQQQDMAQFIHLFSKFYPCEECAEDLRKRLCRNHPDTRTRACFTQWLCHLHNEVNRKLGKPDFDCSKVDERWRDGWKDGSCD
# MLL AF4-AF9 inh – inhibitors of AF4 peptide binding to AF9, primary screen, biochemical, AlphaScreen, biotin-AF4 peptide, FLAG-AF9, single point | inhibition, % at 10 µM | AID 651704, 2012 | Protein AF-9 (Homo sapiens), P42568 | 350,000 compounds, 0.47% hits;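 active means every replicate reaching a set inhibition limit, whatever the replicate mean, cut at about 25% in these data; inconclusive means mean inhibition reaches that limit but some replicates miss it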;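 further: 0% = plate neutral control median and 100% = total signal loss; the record names both 10 and 1 µM as test concentration; the first replicate is given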
# FGF22 binding – binders of human FGF22 protein, primary screen, FGF22 synaptogenesis inhibitor project, biophysical, thermal shift, single point; Fibroblast growth factor 22 (Homo sapiens), Q9HCT0; recombinant FGF22 thermal shift, SYPRO orange fluorescence; percent of sucrose octasulfate shift, DMSO zero; calls only at 9.99 µM; 340,000 compounds, 1.5% hits;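 active means melting point raised past a set limit in the mean and every replicate; inconclusive means no clear call; three in four hits are not shown here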
# Target sequence (Q9HCT0 whole entry, looked up): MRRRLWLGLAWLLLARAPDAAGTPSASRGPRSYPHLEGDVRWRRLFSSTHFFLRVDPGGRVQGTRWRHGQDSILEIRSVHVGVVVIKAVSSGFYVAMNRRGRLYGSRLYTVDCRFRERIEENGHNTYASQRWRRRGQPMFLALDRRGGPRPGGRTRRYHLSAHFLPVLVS
# Ecoli growth – E. coli growth inhibition, primary screen, OD600. Escherichia coli growth, 23 h; active compounds read low. OD600 absorbance (concentration not given with the values). 330,000 compounds, 0.21% hits. AID 1053175, 2014;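 active means OD600 absorbance below the run mean of sample wells minus 3.6 SD, in any replicate, cut at about 0.56 in these data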;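 further: stock transfer was 300 nL into about 60 µL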
# rRNA inh HTS OD600 – further read-out of rRNA inh HTS, marked with its call; OD600 change, %; measured here: OD600 growth;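 optical density of the mix in the first replicate; 0 = DMSO median and -100 = no signal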
# rRNA inh HTS RFP – also measured in rRNA inh HTS; calls as there; RFP signal change, %; measured here: RFP humanized mutant strains;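 first replicate; 0 = DMSO median and -100 = no signal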
# * = called active by the depositor; i = inactive; ? = inconclusive; nt = not tested or not shown; & = joins results of further samples. Only part of the results is shown; the hit share may differ from the screen's.
cpd	compound	rRNA inh HTS	rRNA inh HTS OD600	rRNA inh HTS RFP	Vif A3G	HNF4A DNA FP
1	Cc1occc1C(=O)N1CCC2(CC1)OCCO2	nt	nt	nt	10%	0.7
2	Cc1ccc(C2SCC(=O)Nc3c2c(=O)[nH]n3C2CCOC(C)(C)C2)cc1 (stereo unspecified)	nt	nt	nt	4%	-6.6
3	O=C(Cc1ccccn1)N1CCCCN2[C@H](CO)[C@H](c3ccc(C#Cc4ccccc4)cc3)[C@@H]2C1	-10	-51	16	nt	nt
4	Cc1ccc(N2C(=O)NC(=O)/C(=C\c3ccoc3)C2=O)cc1	20	10	14	?	19
5	CC(=NCCN1CCCCC1)c1c(O)n(Cc2ccccc2)c(=O)[nH]c1=O	nt	nt	nt	4%	8.1
6	COC(=O)C1=C(c2cccc(OC)c2OC)C[C@@H]2CC[C@H]1N2C(=O)N1CCC(C)CC1	11	26	8.0	nt	1.3
7	N=C1c2ccccc2CN1c1ncccn1	26	15	0.2	-7%	-1.4
8	C[C@]12CCC3C(CC[C@H]4C[C@@H](O)CC[C@]34C)C1C[C@@H](Br)[C@@H]2O (stereo partly specified)	2	0	2.0	nt	nt

cpd	ALR H2O2 inh	MLL AF4-AF9 inh	FGF22 binding	Ecoli growth
1	-2	nt	nt	0.73
2	-11	nt	nt	0.8
3	nt	-4.4	i	nt
4	60	-6.0	i	nt
5	25	nt	nt	0.73
6	-9	-22	i	nt
7	-9	-1.5	i	0.66
8	2	-1.4	i	0.68

# New compounds follow.
cpd	compound	rRNA inh HTS	rRNA inh HTS OD600	rRNA inh HTS RFP	Vif A3G	HNF4A DNA FP
9	COc1ccc(CCn2c(O)c(C=Nc3ccc(F)cc3)c(=O)[nH]c2=O)cc1OC	21	3	1.0	-14%	1.8
10	C[C@@]1([C@@H](NP(=O)(c2ccccc2)c2ccccc2)c2ccccc2)C[C@H]1CCO	-13	-21	13	-4%	0.9
11	CCCN1CC(C)C(OC(C)=O)(c2ccccc2)CC1C (stereo unspecified)	nt	nt	nt	6%	-2.3
12	COC(=O)C1C2c3ccccc3OC1(C)N=c1s/c(=C/c3cnn(C)c3)c(=O)n12 (stereo unspecified)	nt	nt	nt	4%	1.7
13	NCCc1ccc(OCc2ccccc2)c(OCc2ccccc2)c1	nt	nt	nt	-10%	-2.8
14	CCCCn1c(O)c(C(CC)=NCCCN(C)C)c(=O)[nH]c1=O	nt	nt	nt	15%	-2.3
15	COC(=O)C1=C(c2ccc(OCc3ccccc3)cc2)C[C@@H]2CC[C@H]1N2C(=O)NCc1cccc(OC)c1	4	4	-2.4	nt	-1.0
16	CN1C(=O)C[N+]([O-])=C(c2ccccc2)c2cc(Cl)ccc21	0	-11	-3.5	0%	-2.3

cpd	ALR H2O2 inh	MLL AF4-AF9 inh	FGF22 binding	Ecoli growth
9	-1	0.4	i	0.66
10	-19	-1.5	i	nt
11	0	nt	nt	0.75
12	-5	nt	nt	nt
13	nt	15	i	0.66
14	2	nt	nt	0.64
15	-1	-16	i	nt
16	nt	-2.1	nt	0.7

# (more compounds)
cpd	compound	rRNA inh HTS	rRNA inh HTS OD600	rRNA inh HTS RFP	Vif A3G	HNF4A DNA FP
17	CCCNC(=O)N1[C@@H]2Cn3c(ccc(-c4cccc(C(=O)N(C)C)c4)c3=O)[C@H]1[C@@H](C(=O)O)[C@@H]2CO	2	5	-2.3	nt	nt
18	CCC(C)C12CN3CCN(CC(C)(C3)C1O)C2 (stereo unspecified)	12	8	0.8	-1%	2.9
19	O=C1NC(=O)N(CC2CCCO2)C(=O)/C1=C/c1cccs1 (stereo unspecified)	9	-13	-0.4	13%	-2.0
20	COc1cc2c(c(OC)c1OC)-c1ccc(O)cc1C(NC(C)=O)CC2 (stereo unspecified)	8	12	1.1	1%	1.2
21	C=CCn1c(O)c(C(CC)=NC(C)c2ccccc2)c(=O)[nH]c1=O (stereo unspecified)	nt	nt	nt	4%	4.3
22	S=C(NCCc1ccccc1)N1Cc2cc(Br)ccc2-n2nncc2C1	-40	-39	-6.5	nt	-2.7
23	CN1C(=O)C(=Cc2ccc(N3CCCCCC3)o2)C(=O)N(C)C1=S	nt	nt	nt	4%	149
24	CCOc1cc2c(cc1OCC)-n1cccc1C(c1cccc(F)c1F)NC2 (stereo unspecified)	-8	-30	-3.2	0%	-1.0

cpd	ALR H2O2 inh	MLL AF4-AF9 inh	FGF22 binding	Ecoli growth
17	nt	-5.1	i	nt
18	0	0.9	i	0.72
19	44	nt	i	0.7
20	nt	0.1	i	0.68&0.68
21	-1	nt	nt	0.69
22	nt	-2.8	i	nt
23	11	nt	nt	0.71
24	-3	15	i	0.65

# In a second layout: results already given
14) CCCCn1c(O)c(C(CC)=NCCCN(C)C)c(=O)[nH]c1=O
15) COC(=O)C1=C(c2ccc(OCc3ccccc3)cc2)C[C@@H]2CC[C@H]1N2C(=O)NCc1cccc(OC)c1
16) CN1C(=O)C[N+]([O-])=C(c2ccccc2)c2cc(Cl)ccc21
17) CCCNC(=O)N1[C@@H]2Cn3c(ccc(-c4cccc(C(=O)N(C)C)c4)c3=O)[C@H]1[C@@H](C(=O)O)[C@@H]2CO
18) CCC(C)C12CN3CCN(CC(C)(C3)C1O)C2 (stereo unspecified)
19) O=C1NC(=O)N(CC2CCCO2)C(=O)/C1=C/c1cccs1 (stereo unspecified)
20) COc1cc2c(c(OC)c1OC)-c1ccc(O)cc1C(NC(C)=O)CC2 (stereo unspecified)
21) C=CCn1c(O)c(C(CC)=NC(C)c2ccccc2)c(=O)[nH]c1=O (stereo unspecified)

entry no.	14	15	16	17	18	19	20	21
rRNA inh HTS	nt	4	0	2	12	9	8	nt
rRNA inh HTS OD600	nt	4	-11	5	8	-13	12	nt
rRNA inh HTS RFP	nt	-2.4	-3.5	-2.3	0.8	-0.4	1.1	nt
Vif A3G	15%	nt	0%	nt	-1%	13%	1%	4%
HNF4A DNA FP	-2.3	-1.0	-2.3	nt	2.9	-2.0	1.2	4.3
ALR H2O2 inh	2	-1	nt	nt	0	44	nt	-1
MLL AF4-AF9 inh	nt	-16	-2.1	-5.1	0.9	nt	0.1	nt
FGF22 binding	nt	i	nt	i	i	i	i	nt
Ecoli growth	0.64	nt	0.7	nt	0.72	0.7	0.68&0.68	0.69

22) S=C(NCCc1ccccc1)N1Cc2cc(Br)ccc2-n2nncc2C1
23) CN1C(=O)C(=Cc2ccc(N3CCCCCC3)o2)C(=O)N(C)C1=S
24) CCOc1cc2c(cc1OCC)-n1cccc1C(c1cccc(F)c1F)NC2 (stereo unspecified)

entry no.	22	23	24
rRNA inh HTS	-40	nt	-8
rRNA inh HTS OD600	-39	nt	-30
rRNA inh HTS RFP	-6.5	nt	-3.2
Vif A3G	nt	4%	0%
HNF4A DNA FP	-2.7	149	-1.0
ALR H2O2 inh	nt	11	-3
MLL AF4-AF9 inh	-2.8	nt	15
FGF22 binding	i	nt	i
Ecoli growth	nt	0.71	0.65

# New compounds follow
cpd	compound	rRNA inh HTS	rRNA inh HTS OD600	rRNA inh HTS RFP	Vif A3G	HNF4A DNA FP
25	COC(=O)C1=CO[C@@H](C)[C@H]2CN3CC[C@]4(C(=O)Nc5ccccc54)[C@@H]3C[C@H]12	1	2	5.4	nt	-2.5
26	CCNc1nc2[nH]c(=O)c3c(c2s1)OC(N)=C(C#N)C3c1cccs1 (stereo unspecified)	nt	nt	nt	5%	-1.1
27	OCCN(CC#CC(O)(c1ccccc1)C1CCCC1)CCO (stereo unspecified)	nt	nt	nt	?	-0.3
28	C=CCc1cc(OC)c2c(c1)OCO2	0	6	-7.8	nt	0.8
29	CCOS(C)(=O)=O	2	-1	-2.5	nt	-3.9
30	C=C1C(=O)OC2CC3(C)OC3C3OC3C3=CC(OC3=O)C12 (stereo unspecified)	nt	nt	nt	nt	-4.6
31	CCOc1ccc(N)cc1	nt	nt	nt	nt	3.9
32	CC1=CC2OC3CC4OC(=O)C=CC=CC(C(C)O)OCC(O)C5(C)OC5C(=O)OCC2(CC1O)C4(C)C31CO1 (stereo unspecified)	8	12	1.8	-3%	-2.2
33	O=C(O)[C@@H]1[C@@H](CO)[C@@H]2Cn3c(ccc(-c4ccncc4)c3=O)[C@H]1N2C(=O)C1CCCCC1	5	6	-0.2	nt	nt

cpd	ALR H2O2 inh	MLL AF4-AF9 inh	FGF22 binding	Ecoli growth
25	-10	-2.3	i	0.69
26	22	nt	nt	nt
27	-17	nt	nt	0.7
28	6	1.0	i	0.76
29	-13	nt	i	0.65
30	nt	-18	i	nt
31	nt	3.9	i	0.67
32	nt	3.9	i	nt
33	nt	7.6	i	nt
